Assay outcomes as filed in PubChem.
PINK1 expr mod: PINK1 expression modulation; 410,000 tested, 0.2% active; PINK1 immunofluorescence, high-content cytometry, 24 h; Potency, µM (doses to about 76.6 µM), for inactives: at the highest dose activation (PINK1 increase), most hits filed as activators; active = well fitted activation curve with a large enough effect; inconclusive = small, poorly fitted or top-dose-only effect; inactive = flat fitted curve, though single readings scatter; cell line not stated here;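 note: potency is the fitted concentration of half-maximal effect; % of control where 0% means no effect; nearly all actives have a fitted effect of over 65% in size; a mitochondrial uncoupler was the plate control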
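Readout is PINK1 immunofluorescence, quantified alongside mitochondrial, cell and nuclear markers by laser-scanning microplate cytometry. Cells from a stable line were exposed to compound titrations (5 concentrations) for 24 hours, with CCCP controls.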
TRPML1 agonist: human mucolipin-1 channel agonism. activation, % (concentration not given with the values). 410,000 tested, 0.12% active. TRPML1-expressing cells, Ca2+ dye fluorescence, FDSS; host cell line not named in the record; reference of the full effect not given here. Q9GZU1; in the data active = activation above about 50%; inconclusive = about 30% to 50%; inactive = below about 30%; note: 0% is about no effect; the text of the record puts the active cut at 80%
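In this qHTS format, compounds were pin-transferred onto Ca8-dye-loaded TRPML1-DL cells induced with Tet overnight, and intracellular Ca2+ fluorescence was recorded kinetically for 110 s after a 10 s baseline. A subsequent 4uM final 54-4 (EC80) addition followed by a second 110 s read served as the antagonist phase.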
TRPML1 blocker: blocks the human TRPML1 channel | Q9GZU1 | TRPML1-inducible cells, Ca2+ dye fluorescence, FDSS; hits give low values; inhibition of EC80 agonist-evoked calcium signal | activity change, negative = inhibition, % (concentration not given with the values) | 390,000 tested, 0.02% active | AID 624415; in the data active means activity change below about -50%; inconclusive means about -30% to -50%; inactive means above about -30%;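 note: stimulus is agonist 54-4 at its EC80 concentration; % is set by controls: 0 for no effect and ±100 for the full control effect; compound concentration not given in the record; the text of the record puts the active cut at -80%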
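Calcium fluorescence in TRPML1-DL cells induced overnight with Tet: a 110 s read after compound pin addition, then a 110 s antagonist read after challenge with 54-4 at 4 uM final (EC80).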
D2 PAM: human D2 receptor positive allosteric modulation; P14416; DiscoveRx D2 beta-arrestin cells, luminescence, 90 min; 100% = 57 uM dopamine signal; potentiation, % (test concentration not listed); 360,000 tested, 0.23% active; AID 624464; active = potentiation of 50% or more; inconclusive = 30% to 50%; inactive = 30% or less;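 note: compound concentration not given in the record; tested on top of an EC20 dose of dopamine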
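D2 cells co-treated with compound plus 50 nM dopamine (EC20) for 90 min at 37 deg C to detect potentiation. Beta-arrestin recruitment was read as enzyme-fragment luminescence after 1 h at ambient temperature. Full response was set by 57 uM dopamine.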
D2 agonist: human D2 receptor agonism in beta-arrestin assay; P14416; DiscoveRx PathHunter D2 beta-arrestin, luminescence, 90 min; 100% = 57 uM dopamine signal; activation, % (test concentration not listed); 360,000 tested, 0.084% active; AID 624465; in the data active = activation above about 40%; inconclusive = about 15% to 40%; inactive = below about 15%; note: compound concentration not given in the record; the text of the record calls up to 30% inactive
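DiscoveRx PathHunter D2 beta-arrestin cells (2,100/well) attached overnight, then compound-stimulated 90 min at 37 C in HBSS/10 mM HEPES/0.1% Tween-20 buffer; beta-galactosidase complementation read by luminescence after 1 h at ambient temperature. Dopamine 57 uM final (EC100) as control.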
Six1-Eya2 inh: inhibitors of human Six1/Eya2 interaction; Q15475+O00167; AlphaScreen GST-Six1/His-Eya2 binding, biochemical; hits give low values; control for the full effect not named in the record; activity change, % (test concentration not listed); 360,000 tested, 0.56% active; in the data active = activity change below about -65%; inconclusive = about -30% to -65%; inactive = above about -30%; note: % is set by controls: 0 for no effect and ±100 for the full control effect; compound concentration not given in the record
Target sequence (O00167 whole entry, looked up): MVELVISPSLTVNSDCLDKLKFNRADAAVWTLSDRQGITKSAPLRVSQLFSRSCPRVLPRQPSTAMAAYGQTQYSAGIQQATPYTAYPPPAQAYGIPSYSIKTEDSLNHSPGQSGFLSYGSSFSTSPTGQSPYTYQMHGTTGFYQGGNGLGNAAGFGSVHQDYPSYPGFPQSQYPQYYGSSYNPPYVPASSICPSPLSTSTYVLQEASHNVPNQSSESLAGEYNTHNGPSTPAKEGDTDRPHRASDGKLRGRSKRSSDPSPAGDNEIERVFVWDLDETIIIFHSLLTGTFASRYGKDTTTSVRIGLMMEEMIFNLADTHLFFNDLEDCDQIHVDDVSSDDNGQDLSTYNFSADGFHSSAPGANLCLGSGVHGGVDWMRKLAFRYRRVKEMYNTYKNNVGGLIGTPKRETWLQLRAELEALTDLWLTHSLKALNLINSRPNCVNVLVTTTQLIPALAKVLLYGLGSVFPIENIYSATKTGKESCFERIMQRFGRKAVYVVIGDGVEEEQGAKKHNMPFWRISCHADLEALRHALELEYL
Target sequence (Q15475 whole entry, looked up): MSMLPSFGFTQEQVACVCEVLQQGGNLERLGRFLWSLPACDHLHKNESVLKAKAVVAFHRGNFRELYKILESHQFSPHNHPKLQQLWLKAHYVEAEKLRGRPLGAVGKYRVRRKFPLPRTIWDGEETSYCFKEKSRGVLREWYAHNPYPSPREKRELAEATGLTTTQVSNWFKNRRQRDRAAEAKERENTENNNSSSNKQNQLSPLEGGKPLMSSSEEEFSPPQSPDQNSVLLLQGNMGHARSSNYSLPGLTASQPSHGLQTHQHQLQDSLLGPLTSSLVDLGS
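Homogeneous AlphaScreen proximity assay pairing GST-Six1 with His-tagged Eya2 (added as 5X mix: 250 nM and 500 nM) in 50 mM Tris pH 8.0, 300 mM NaCl, 1 mM TCEP. Glutathione donor and nickel acceptor beads; 1 h, 37 °C, dark.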
An asterisk follows results filed as active; ? = inconclusive; nt = not tested or not shown; [ ] = dose if it differs, or a comment.

Second line of a record – PINK1 expr mod, TRPML1 agonist, TRPML1 blocker, D2 PAM, D2 agonist, Six1-Eya2 inh
- O=C(CCSCCC(=O)NCc1cccs1)NCc1cccs1
    -0.1%, -0.9, 4, -23, -2.0, 12
- COc1ccc(C(=O)OCC(=O)c2c[nH]c3ccccc23)c(OC)c1
    3.1%, -1.7, 14, 10, 0.0, 0
- N#Cc1c(F)cccc1N1CCN(Cc2ccc3c(c2)OCO3)CC1
    2.0%, 1.1, -24, -19, -3.9, 105
- CN(Cc1ccc(F)cc1)C(=O)c1cccc(OC2CCN(C3CCCC3)CC2)c1
    0.2%, -0.2, 22, -7, -5.0, 0
- c1cc2c(cc1-c1[nH]ncc1CN1CC3C[C@@H]4CC1C[C@H](C3)C4)OCO2
    -2.6%, 1.0, 10, -6, 3.8, -7
- CC1=C/C(=C(/c2cc(C)c(O)c(Br)c2)c2ccccc2S(=O)(=O)O)C=C(Br)C1=O
    -1.6%, 0.1, -5, -16, -4.2, -73*
- O=C(Cc1ccc([N+](=O)[O-])cc1)Nc1ccc(O)cc1C(=O)O
    4.6%, 1.0, 18, 12, -0.4, -4
- O=C(Cc1ccccc1)N(c1ccc(F)cc1)C1C=CS(=O)(=O)C1 (configuration not stated)
    -1.2%[38.3 µM], -0.5, 8, 4, -0.5, 0
- Cc1ccc(C(=O)OCC(=O)NCCNC(=O)COC(=O)c2ccc(C)s2)s1
    9.7%, 0.9, 1, -15, -0.5, -5
- CCOCCc1nn2c(=O)cc(COC(=O)c3ccc(NC(=O)C(C)(C)C)cc3)nc2s1
    3.4%, 2.0, 5, nt, nt, nt
- O=C(CN1C(=O)NC(Cc2c[nH]c3ccccc23)C1=O)Nc1cccc(S(=O)(=O)N2CCCCCC2)c1 (configuration not stated)
    -1.2%, 0.8, -4, 52*, 4.0, -17
- O=C(Cn1c(=O)oc2cc(S(=O)(=O)N3CCCC3)ccc21)NC1CCCCC1
    1.8%, -0.4, 15, -5, 0.5, 8
- CCOC(=O)Cn1c2c(c(-c3ccccc3OC)cc1=O)CCCC2
    5.6%[38.3 µM], 1.8, 19, -7, 3.6, 9
- CCOc1ccccc1NC(=O)Cn1nnc(C(=O)Nc2ccc(C)cc2)c1N
    3.2%, 1.3, 93, -27, -2.9, 14
- O=C(N[C@@H](Cc1ccccc1)C(=O)OCc1ccccc1)c1nc[nH]c1C(=O)NC(c1ccccc1)c1ccccc1
    0.4%, -0.1, 1, -13, -2.8, -9
- O=C1NN=C2CCCCCC12 (configuration not stated)
    0.1%, 0.4, 7, -12, -2.3, -8
- O=C(CN1CCOCC1)N/N=C/c1ccc(C(=O)O)cc1
    0.9%, 0.7, 15, -2, -1.6, 5
- O=C(N/N=C/c1ccc(F)cc1)c1ccccc1
    0.8%, 4.2, -14, -10, -3.9, 6
- CCC1=C2CC[C@H]3C(=O)NC(=O)[C@H]3[C@H]2[C@@]2(Cc3ccccc3)C(=NCC(=O)OC)OC(=O)N2C1=O
    0.9%, 3.5, 15, -3, -3.6, 10
- CNCC(=O)N1CCN(c2ncc(C(F)(F)F)cc2Cl)CC1
    -0.2%, 0.7, -25, -34, -2.1, -1
- O=C(c1cccc([N+](=O)[O-])c1)N1c2nc(-c3ccco3)nn2C2(CCCCC2)[C@@H]2CCCC[C@@H]21
    0.4%, 2.6, 47, nt, nt, nt
- COc1ccc(CNC(=O)c2ccc3nc(CCc4ccccc4)oc3c2)cc1
    4.5%, 2.4, -14, nt, nt, nt
- Cc1cc(C)n2nc(C(=O)NCc3ccco3)cc2n1
    -1.2%, -0.7, -2, -8, -3.3, -10
- O=C(CC1C(=O)NCCN1Cc1ccc(-c2ccccc2)cc1)NCc1ccncc1 (configuration not stated)
    -0.7%, 0.6, -9, -10, -3.3, -2
- Cc1ccc(CN2CCN(/N=C/C(Br)=C\c3ccccc3)CC2)cc1
    1.6%, 2.4, 9, -20, 0.2, -28
- N#CC(=C1C=C(Br)C(=NO)C=C1Cl)c1cccc2ccccc12
    10%, -0.3, -4, 19, ?, -23
- O=C(COc1ccc2c(c1)oc(=O)c1ccccc12)NCCN1CCOCC1
    -0.2%, -0.6, 17, -19, -6.8, -8
- CC(NC(=O)C(C)N1CCN(Cc2ccccc2)CC1)c1ccccc1 (configuration not stated)
    -0.7%, 0.8, 10, -15, -4.1, 5
- Nc1nnc(SCC(=O)NN2C(=O)NC3(CCCCC3)C2=O)s1
    3.4%, 0.5, 0, -7, -0.9, 7
- CCCn1nc(NC(=O)c2cccc(Cl)c2)c2cc3cccc(C)c3nc21
    -0.3%, 0.0, 12, nt, nt, nt

Some of these compounds in order of their number in Six1-Eya2 inh, smallest number first:
| Molecule | PINK1 expr mod | TRPML1 blocker | D2 PAM | D2 agonist | Six1-Eya2 inh |
| --- | --- | --- | --- | --- | --- |
| O=C1NN=C2CCCCCC12 (configuration not stated) | 0.1% | 7 | -12 | -2.3 | -8 |
| CC(NC(=O)C(C)N1CCN(Cc2ccccc2)CC1)c1ccccc1 (configuration not stated) | -0.7% | 10 | -15 | -4.1 | 5 |
| O=C(N/N=C/c1ccc(F)cc1)c1ccccc1 | 0.8% | -14 | -10 | -3.9 | 6 |

More results:
Second line of a record – PINK1 expr mod, TRPML1 agonist, TRPML1 blocker, D2 PAM, D2 agonist, Six1-Eya2 inh
- COc1cc(OC)cc(-c2nc3nc(C)c(CCC(=O)NCC(OC)OC)c(C)n3n2)c1
    -0.6%, -0.1, 2, -3, -3.6, 1
- CCSc1nc(N)c(C#N)c(-c2ccco2)c1C#N
    0.3%, 1.0, -4, 1, -5.5, -29
- CCOC(=O)C1(CCCc2ccccc2)CCN(C2CCSCC2)CC1
    9.8%, 0.9, 29, -8, -4.5, 2
- O=C(CN1C(=O)c2cccc([N+](=O)[O-])c2C1=O)OCC(=O)N1CCCCC1
    -1.1%, -0.2, -7, -2, -2.8, 9
- COc1ccc(-c2csc(NC(=O)C(CC(=O)O)N3CCOCC3)n2)cc1 (configuration not stated)
    -1.1%, 0.1, 0, -3, -1.9, 3
- COC(=O)c1[nH]c2ccccc2c1CN1CCOCC1
    -0.1%, -0.1, -11, -10, -5.0, 1
- CCc1ccc(NC(=O)c2cc(C(C)C)on2)cc1
    -0.2%[38.3 µM], 1.5, -29, -20, -3.6, -1
- O=C(NCC#CCOCc1ccccc1)c1ccccc1
    -1.4%, 0.4, 2, -11, 0.7, 1
- CCN1C(=O)[C@H]2[C@@H](c3ccc(C(F)(F)F)cc3)N[C@]3(CCCN(Cc4ccccc4)C3=O)[C@H]2C1=O
    6.2%, -0.2, -2, -4, -9.9, -15
- CCCCn1c(N)c(N(CCOC)C(=O)c2ccc(S(=O)(=O)N3CCCCC3)cc2)c(=O)[nH]c1=O
    -2.2%, -0.6, -3, 1, -5.4, -4
- O=C(Nc1cccn(Cc2cccc(F)c2)c1=O)NC1CCCCC1
    0.8%, 2.0, -8, -3, -4.0, 3
- CC(C)CCNC(=O)C(c1ccncc1)N(C(=O)Cn1nnc(-c2ccc(F)cc2)n1)c1ccccc1F (configuration not stated)
    5.0%, 4.5, 9, -4, -3.7, -5
- O=C1CCC2=C(CCCC2=O)N1
    0.3%, 0.5, 26, -3, -0.2, 9
- COc1cc(/C=N/NC(=O)CNc2n[nH]c(=O)[nH]c2=O)ccc1O
    -1.4%, 0.9, -19, -11, -0.5, -1
- COc1cc(NC(=O)C2CCN(S(=O)(=O)c3c(C)noc3/C=C/c3c(C)cc(C)cc3C)CC2)cc(OC)c1
    3.1%, -0.3, 43, nt, nt, nt
- O=C(COc1ccc(/C=N/NS(=O)(=O)c2ccccc2)cc1)N1CCOCC1
    0.6%, 1.2, 16, -5, 0.7, -8
- O=C(Nc1nccs1)c1cccc2ccccc12
    2.1%, 1.7, 31, -1, -2.8, -3
- Cc1ccn2c(CNCC3OCCc4ccccc43)c(C(=O)N3CCCCCC3)nc2c1 (configuration not stated)
    -2.1%, -0.7, 16, -18, -1.5, -2
- CN(C(=O)COC(=O)COc1ccc2c(c1)CCC2)c1c(N)n(Cc2ccccc2)c(=O)[nH]c1=O
    4.6%, 0.2, -4, -1, -2.1, 5
- O=C(NC(=S)Nc1ccccc1Br)c1cccnc1
    0.1%, nt, nt, -5, -2.3, 2
- COc1cccc(NC(=O)Nc2nnc(-c3ccccc3SCc3ccccc3)s2)c1
    ?, -0.4, 30, 3, -2.6, 4
- Cc1ccc(Nc2ncnc3c2cnn3C)c(C)c1
    -1.0%, -0.3, 6, 0, 6.0, 9
- Cc1ccccc1-c1nc2ccccc2c(=O)o1
    1.0%, 1.5, -10, -1, 0.2, 7
- COc1cc(NC(=O)COc2cc(C)cc3oc(=O)c(C)c(C)c23)cc(OC)c1OC
    5.8%, -0.3, -11, -11, -3.9, 8
- COC(=O)C1CCN(C(=O)Cn2nnc(-c3cccc(F)c3)n2)CC1
    -0.2%, -0.6, 2, 1, 3.3, 0
- COCCCNC(=S)NNC(=O)c1cccnc1
    0.4%, -0.4, 11, -28, -4.4, 3
- O=C(CC(c1ccccc1)c1ccccc1)NCC(O)c1ccc([N+](=O)[O-])cc1 (configuration not stated)
    -0.7%, 1.7, 4, -2, 3.5, -5
- N#Cc1ccccc1NC(=S)NC(=O)c1cccs1
    0.9%, 6.5, 11, -13, -8.0, -2
- Cc1ccc(C)c(NC(=O)c2cc(-c3ccccc3O)n[nH]2)c1
    7.3%, 3.4, 36, 0, 0.9, -1
- O=C1CC(NS(=O)(=O)c2cc(F)ccc2F)CN1c1ccc2c(c1)OCCO2 (configuration not stated)
    1.9%, -0.5, -4, 1, 1.5, 9

Next part, overlapping the part above by 2 compounds.
Second line of a record – PINK1 expr mod, TRPML1 agonist, TRPML1 blocker, D2 PAM, D2 agonist, Six1-Eya2 inh
- Cc1ccc(C)c(NC(=O)c2cc(-c3ccccc3O)n[nH]2)c1
    7.3%, 3.4, 36, 0, 0.9, -1
- O=C1CC(NS(=O)(=O)c2cc(F)ccc2F)CN1c1ccc2c(c1)OCCO2 (configuration not stated)
    1.9%, -0.5, -4, 1, 1.5, 9
- COC(=O)c1[nH]c2cccc(OC)c2c1NC(=O)CCN1CC(C)CC(C)C1 (configuration not stated)
    0.1%, -0.4, 11, -34, -2.5, -1
- O=C(OCC(=O)N1CCc2ccccc21)[C@@H]1CC(O)CN1S(=O)(=O)c1ccc(Cl)cc1 (some centres not stated)
    0.2%, 0.3, -4, -5, 0.3, -8
- O=S(=O)(Nc1ccc2nc(-c3ccc(F)cc3)oc2c1)c1ccccc1
    17%, 3.5, 17, nt, nt, nt
- COc1ccc(-c2cc(C(F)(F)F)n3nc(C(=O)N4CCOCC4)c(Cl)c3n2)cc1
    2.9%, -0.5, 3, -5, -2.4, ?
- CC[C@@H](C)C(C(=O)N1CCN(C(=O)OC(C)(C)C)CC1)n1cc(-c2cn([C@@H](C)C(=O)N3CCN(C(=O)OC(C)(C)C)CC3)nn2)nn1 (some centres not stated)
    1.2%, -0.3, 31, -5, -2.0, 1
- O=C(Nc1ccccn1)c1ccc(Cl)c([N+](=O)[O-])c1
    2.2%, -0.6, 37, -4, -2.7, 1
